# From PubChem
# VACV Venus inh: inhibitors of vaccinia virus (Venus reporter) | hit rate 0.46% among 330,000 | AID 720580 | Vaccinia virus Venus reporter expression, fluorescence | Potency, µM (highest dose often 36.5 µM), for the others: top-dose activity change, negative = inhibition, actives largely listed as inhibitors; active means well fitted inhibition curve with a large enough effect; inconclusive means small, poorly fitted or top-dose-only effect; inactive means no such curve, though single readings can be large or run the other way; tested in A549 cells; also: nearly all actives have a fitted effect of over 30% in size; inactives centre near -10
# Vaccinia mCherry: vaccinia inhibition (mCherry reporter); Potency, µM (titrated, usually from 36.5 µM), for the others: at the highest dose activity change, negative = inhibition, most hits filed as inhibitors; hit rate 0.63% among 310,000; Vaccinia virus mCherry reporter infection, fluorescence; about a quarter of the inactives have no number; active = well fitted inhibition curve with a large enough effect; inconclusive = small, poorly fitted or top-dose-only effect; inactive = no such curve, though single readings can be large or run the other way; tested in A549 cells; also: nearly all actives have a fitted effect of over 35% in size; inactives centre near -10
# The depositor's hits bear a star; i = inactive; ? = inconclusive; / = no result given; & = joins results of further samples; [ ] = dose if it differs, or a comment. % is scaled to controls: 0 for no effect and ±100 for the full control effect; potency is read from the fitted curve at half-maximal effect.
# Start of the data: the first 20 compounds, ahead of the listing:
SMILES,VACV Venus inh,Vaccinia mCherry
CCn1cc(C(=O)NCc2ccc(OC)cc2)c(=O)c2ccc(C)nc21,-15%,-3%
CCC(C(=O)Nc1c2c(nn1C(C)(C)C)CS(=O)(=O)C2)c1ccccc1 (stereo unspecified),-8%,-14%
CCCCC(C(=O)O)C(C)CC(=O)Nc1nncs1 (stereo unspecified),-12%,-9%
N=C(N)SCc1nc2ccccc2c(=O)n1-c1ccccc1,0%&1%,-12%&-8%
Cc1nnc(SCC(=O)NNC(=O)c2ccc(Br)cc2)n1C,-12%,-29%
CNc1c([N+](=O)[O-])cnn1-c1ccc(F)cc1,-1%,4%
COC(=O)c1c(NC(=O)CCNCc2ccco2)sc2c1CCC2,-15%,1%
CC(CNc1ccccc1O)C(=O)O (stereo unspecified),89µM*,4.5µM*
CC(C)=CCCC1(C)C=Cc2c(ccc3c2[nH]c2cc(O)c(C)cc23)O1 (stereo unspecified),-17%,-27%
Clc1ccc(-n2cccc2CN2CCc3nnc(Cc4ccccc4)n3CC2)nc1,-11%,i
CCCCCCn1cc(CN2CC(N3CCN(Cc4cccc(C)c4)CC3)CS2(=O)=O)nn1 (stereo unspecified),-7%,6%
O=C(O)c1ccc(N2C(=O)CC(Cc3ccccc3)C2=O)cc1 (stereo unspecified),-10%,-13%
CC(=O)NC1=NN(C(C)=O)C(C)(c2ccccc2)S1 (stereo unspecified),-28%,-11%
CC1CCCC(NC(=O)CSc2nnc(-c3cccnc3)o2)C1C (stereo unspecified),-17%,-12%
CCCCOCCCNC(=O)c1cccc(OC)c1,-22%,-20%
Cc1ncsc1CCSc1nc2ccccc2c(=O)n1C,-28%,-28%
Cc1cc(NC(=O)CCN2C(=O)/C(=C\c3ccccc3Cl)SC2=S)no1,-2%,i
CC(C)c1ccc(NC(=O)C(c2ccccc2)N2CCN(C=O)CC2)cc1 (stereo unspecified),-19%,i
COc1ccc(C2/C=C\CN(C(=O)C3CCCC3)CC(=O)N2Cc2ccc(F)cc2)cc1 (stereo unspecified),-13%,-3%
CCn1cc(CN2CCCC(CO)(Cc3cccc(Cl)c3)C2)cn1 (stereo unspecified),-6%,0%

# Main list, previewed entries included:
SMILES,VACV Venus inh,Vaccinia mCherry
CCn1cc(C(=O)NCc2ccc(OC)cc2)c(=O)c2ccc(C)nc21,-15%,-3%
CCC(C(=O)Nc1c2c(nn1C(C)(C)C)CS(=O)(=O)C2)c1ccccc1 (stereo unspecified),-8%,-14%
CCCCC(C(=O)O)C(C)CC(=O)Nc1nncs1 (stereo unspecified),-12%,-9%
N=C(N)SCc1nc2ccccc2c(=O)n1-c1ccccc1,0%&1%,-12%&-8%
Cc1nnc(SCC(=O)NNC(=O)c2ccc(Br)cc2)n1C,-12%,-29%
CNc1c([N+](=O)[O-])cnn1-c1ccc(F)cc1,-1%,4%
COC(=O)c1c(NC(=O)CCNCc2ccco2)sc2c1CCC2,-15%,1%
CC(CNc1ccccc1O)C(=O)O (stereo unspecified),89µM*,4.5µM*
CC(C)=CCCC1(C)C=Cc2c(ccc3c2[nH]c2cc(O)c(C)cc23)O1 (stereo unspecified),-17%,-27%
Clc1ccc(-n2cccc2CN2CCc3nnc(Cc4ccccc4)n3CC2)nc1,-11%,i
CCCCCCn1cc(CN2CC(N3CCN(Cc4cccc(C)c4)CC3)CS2(=O)=O)nn1 (stereo unspecified),-7%,6%
O=C(O)c1ccc(N2C(=O)CC(Cc3ccccc3)C2=O)cc1 (stereo unspecified),-10%,-13%
CC(=O)NC1=NN(C(C)=O)C(C)(c2ccccc2)S1 (stereo unspecified),-28%,-11%
CC1CCCC(NC(=O)CSc2nnc(-c3cccnc3)o2)C1C (stereo unspecified),-17%,-12%
CCCCOCCCNC(=O)c1cccc(OC)c1,-22%,-20%
Cc1ncsc1CCSc1nc2ccccc2c(=O)n1C,-28%,-28%
Cc1cc(NC(=O)CCN2C(=O)/C(=C\c3ccccc3Cl)SC2=S)no1,-2%,i
CC(C)c1ccc(NC(=O)C(c2ccccc2)N2CCN(C=O)CC2)cc1 (stereo unspecified),-19%,i
COc1ccc(C2/C=C\CN(C(=O)C3CCCC3)CC(=O)N2Cc2ccc(F)cc2)cc1 (stereo unspecified),-13%,-3%
CCn1cc(CN2CCCC(CO)(Cc3cccc(Cl)c3)C2)cn1 (stereo unspecified),-6%,0%
O=C(COc1ccccc1Cl)Nc1ccc2oc(-c3ccccc3F)nc2c1,-4%,5%
OC1(C#CCN2CCCC2)c2ccccc2-c2ccccc21,-10%,i
O=C(O)CCCN(Cc1cccc(Br)c1)S(=O)(=O)c1ccc(Br)cc1,9%,i
CC(OC(=O)CN1C(=O)C2C3C=CC(C4CC34)C2C1=O)C(=O)c1ccccc1 (stereo unspecified),8%,-1%
Cc1cccc(C(=O)NCCc2ccccc2)c1,-11%,-20%
Fc1ccccc1CNC(=S)Nc1cccc(C(F)(F)F)c1,?,?
O=C1Nc2ccccc2C(=O)N2c3ccccc3NC(=O)C12 (stereo unspecified),-1%,5%
O=C1NCN(c2ccccc2)C12CCN(C(c1cc3ccccc3o1)c1nnnn1-c1ccc3c(c1)OCCO3)CC2 (stereo unspecified),-7%,14%
CCCOc1ccc(-c2cnc(N)s2)cc1,5µM*,4.5µM*
O=C(O)CCc1ccc(-c2ccc(F)cc2)n1CC(=O)O,-14%,/
Cc1sc2nc(SCC(=O)N3CC(C)OC(C)C3)n(C)c(=O)c2c1C (stereo unspecified),-17%,i
O=S(=O)(c1ccc(Cl)cc1)N1CCN(c2ccccn2)CC1,-15%,i
COC(=O)c1cc(CC(=O)c2ccc(O)cc2O)c(C)o1,-8%,-7%
COc1cc(C)c(S(=O)(=O)N2CCCC2)cc1C,-17%,/
CCOc1ccc(-c2cc(C(=O)N/N=C/c3cccnc3)c3ccccc3n2)cc1,-15%,?
O=C(O)c1cccnc1Sc1ccc(Cl)cc1,-13%,-4%
O=C(NCc1ccccc1)C1CCCN(C(=O)NCc2ccccc2)C1 (stereo unspecified),3%,-7%
CCOC(=O)c1cn(-c2c(Cl)cccc2Cl)c2cc(Cl)c([N+](=O)[O-])cc2c1=O,?,?
CCN1C(=O)N2C[C@H]3CON(C)[C@H]3C[C@H]2c2ccccc21,-2%,18%
CC(C)CC1c2[nH]c3ccccc3c2CCN1C(=O)C1CCOCC1 (stereo unspecified),11%,-13%
CCn1cc(C(=O)N2CCN(c3cccc(Cl)c3)CC2)c2cc(OC)c(OC)cc2c1=O,?,?
COc1cccc(CNc2nc3c(-c4ccccc4)nnn3c3ccccc23)c1,?,?
COc1ccc2c(C)c(CCC(=O)NCc3ccc(C)cc3)c(=O)oc2c1,1%,-11%
COc1ccc(-c2nn(-c3ccccc3)cc2/C=C(\C#N)S(=O)(=O)c2ccccc2)cc1OC,-10%,-13%
CCN1C(=O)/C(=C/N2CCc3ccccc3C2)SC1=S,-9%[7.34 µM],-6%[7.34 µM]
O=C(c1ccco1)N1CCN(C(=O)N2CCCCC2)CC1,-1%,-11%
O=C(Nc1cccc2ccccc12)OCc1ccccc1,-4%,?
CCN(CC(=O)Nc1ccc(Br)c(C)c1)CC(=O)NC(C)C,-11%,-2%
COc1ccc(CCC(C)Nc2ccccc2F)cc1 (stereo unspecified),-4%,-12%
CCc1nc2ccc(C(=O)N3CCN(C)CC3)cn2c1N(CCC(C)C)CCN(C)C,3%,40%[activator]
C=C1CC[C@H](O)C/C1=C/C=C1\CCC[C@]2(C)C([C@H](C)CCCC(C)(C)O)CC[C@@H]12 (stereo partly specified),-7%[3.33 µM],-11%[3.33 µM]
COC(=O)c1ccc(CSc2nnc3ccc4ccccc4n23)cc1,-12%,-7%
O=C(O/C(=C/c1ccccc1)C(F)(F)F)c1ccccc1,-4%,i
O=C(c1ccc(F)cc1Cl)N(Cc1ccco1)C1CCS(=O)(=O)C1 (stereo unspecified),-1%,-14%
CNC(=O)c1c(NC(=O)CCS(=O)(=O)c2ccc(C)cc2)sc2c1CCN(C(=O)OC)C2,-9%,-20%
O=C(COC(=O)c1ccccc1SCC(=O)N1CCCC1)NCc1ccc(F)cc1,-9%,-30%
CCOc1cccc2cc(-c3nc(-c4ccc(Cl)cc4)c(C)s3)c(=O)oc12,5%,1%
O=C(NC(=S)Nc1ccccc1O)c1ccccc1Cl,-5%,-5%
Cc1cc(NS(=O)(=O)c2ccc(NC(=O)C(C)Oc3ccccc3Cl)cc2)no1 (stereo unspecified),-4%,i
Cc1[nH]n(-c2cccc(Cl)c2)c(=O)c1-c1ccccc1,-28%,-14%

# Next part
SMILES,VACV Venus inh,Vaccinia mCherry
CCCC1(CCC)NC(=O)N(CC(=O)N2CCc3ccccc32)C1=O,-20%,i
CN(CC(=O)Nc1ccc(Cl)c(Cl)c1)Cc1nnc(-c2ccc(F)cc2)o1,3%,-1%
CN(C)c1ccc(N=Nc2ccccc2C(=O)OCC(=O)NCC2CCCCC2)cc1,-29%,-10%
C[C@H](CO)N1C[C@H](C)[C@H](CN(C)S(=O)(=O)c2cccc(F)c2)Oc2cc(Br)ccc2S1(=O)=O,-13%,6%
COc1ccc(C2=C(c3ccc(OC)c(OC)c3)CN3CCCCC3C2)cc1 (stereo unspecified),-12%,-19%
O=C(NC1CC1)c1ccc2c(c1)C1C3CCC(C3)C1C(c1ccccc1)N2 (stereo unspecified),-15%,?
CN(Cc1ccccc1)Cc1cc(=O)oc2ccccc12,7%,16%
CCCCn1c(SCC(=O)Nc2sc3c(c2C(N)=O)CCC3)nnc1-c1ccccc1,-24%,-26%
O=C(Nc1c(-c2ccccc2)nc2ncccn12)c1cc2ccccc2oc1=O,-6%,13%
O=C(NC(Cc1ccccc1)C(=O)O)/C(=C/c1ccc([N+](=O)[O-])cc1)NC(=O)c1ccc(Br)o1 (stereo unspecified),-2%,-4%
COc1ccc(OCc2ccc(-c3nc(C#N)c(N4CCN(c5ccccc5)CC4)o3)o2)cc1,-5%,-6%
CC[C@]12c3[nH]c4cc(-c5ccco5)ccc4c3CCN1C(=O)[C@@H](CC(=O)NCCN1CCOCC1)C[C@@H]2C(=O)N1CCN(C(=O)c2ccco2)CC1,-8%,i
CCN1CCN(c2ccc(S(=O)(=O)N3CCCCC3)cc2NC(=O)c2ccc([N+](=O)[O-])s2)CC1,10µM*,8.9µM*
Cc1ccc(S(=O)(=O)N2[C@@H](c3ccc(C(C)(C)C)cc3)C(C(=O)O)=CC[C@H]2c2cccc(Cl)c2)cc1,?,?
COc1ccc(-c2ccc(/C=C3/C(=N)N4C=CSC4=NC3=O)o2)c([N+](=O)[O-])c1,68%[activator],i
Cc1c(C(N)=O)sc2nc(-c3ccccc3)cn12,-13%,-2%
O=C(COc1ccc(Cl)cc1Cl)N(Cc1ccco1)C1CCS(=O)(=O)C1 (stereo unspecified),-6%,-8%
COc1ccc(CNC(=O)c2nc(S(=O)(=O)Cc3ccccc3)ncc2Cl)cc1,-10%[7.34 µM],-12%[7.34 µM]
CCCc1[nH]n(-c2nc3ccccc3s2)c(=O)c1C=NCCCN(CC)CC,-12%,i
COCCN(CC(=O)NCc1ccccc1)C(=O)CCC(=O)Nc1nccs1,-7%,/
CS(=O)(=O)C1=NSC2=NC(=O)/C(=C\c3cccn3-c3ccc(Cl)cc3)C(=N)N21,-3%,-8%
CCc1nc2ccc(C(=O)NCC3CCCCC3)cn2c1N(C)Cc1nccs1,-11%,6%
CC(C)(C)C(=O)NCC12C=CC(O1)C1C(=O)N(c3ccccc3)C(=O)C12 (stereo unspecified),-3%,-2%
Cc1cc2nc(-c3nnnn3Cc3ccccc3)c(=O)[nH]c2cc1C,-4%,33%[activator]
CC(O)[C@H]1CNC(=S)N1CCc1cccc(F)c1 (stereo partly specified),-12%,-3%
CC(C)(C)OC(=O)[C@H](Cc1ccccc1)NC(=O)c1nc[nH]c1C(=O)NCc1ccccc1,-18%,i
COc1ccc(C(=O)Nc2ccc(C(=O)N3CCCCC3)cc2)cc1OC,-10%,-5%
CCOC(=O)c1nn(-c2cccc(C)c2)cc1C(=O)c1ccccc1,-12%,-24%
O=C(N1CCOCC1)N(Cc1cccs1)C1CCCC1,3%,/
COc1ccc(/C=C2\C(=O)NCC(=O)N2Cc2ccccc2)cc1,?,/
COc1ccc(-c2[nH]ncc2CN(C)Cc2cc(C)[nH]n2)c(F)c1,-10%,i
COc1cccc(NC(=O)Cn2c(CCC(=O)O)ccc2-c2ccccc2)c1,-4%,?
CCOC(=O)c1c(-c2ccc(C)o2)csc1NC(=O)CSc1nnc(C)s1,-4%,-7%
CC(=O)Nc1ccc(S(=O)(=O)N(C)CC(=O)OCC(=O)N2CCN(C(=O)c3ccco3)CC2)cc1,-2%,-14%
Cn1ccc2c(N3CCCC3)cc3c(c21)C1CCC3O1 (stereo unspecified),7%,20%
CC1(Br)C(Sc2ccccc2[N+](=O)[O-])=Nc2ccccc21 (stereo unspecified),-16%,-25%
O=c1c(/C=N/O)coc2ccc(Cl)cc12,6%,-5%
CCOC(=O)c1csc(NC(=O)c2ccc(OC)c(OC)c2)n1,-24%,i
CC(C)CCOc1ccc(C(=O)C[N+]2(C)CCOCC2)cc1,-8%,-9%[1.46 µM]
O=C(NCc1ccco1)c1cc2nc(-c3cccs3)cc(C(F)(F)F)n2n1,-27%,-27%
Cc1ccccc1NC(=O)c1cccc(S(=O)(=O)Nc2cccc(C(=O)O)c2)c1,-24%,-4%
CC(Cc1ccccc1)[n+]1cc(/N=C(\[O-])Nc2ccccc2)on1 (stereo unspecified),-13%,-22%
COc1ccc(N2C(=O)CC(N3CCN(c4ccc(S(C)(=O)=O)cc4)CC3)C2=O)cc1 (stereo unspecified),-5%,i
